OX1R antag – antagonists of human orexin 1 receptor | O43613 | CHO/OX1R cells, Fluo-8 calcium fluorescence, orexin A | inhibition, % at 5 µM | 330,000 tested, 0.43% active | AID 434989;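 active means inhibition above its plate's threshold, mean inhibition of all tested compounds on the plate plus 3 SD, cut at about 37% in these data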;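 further: 0% = orexin A challenge wells and 100% = SB-334867-A antagonist wells; not every result past the cut was called active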
Target sequence (O43613 whole entry, looked up): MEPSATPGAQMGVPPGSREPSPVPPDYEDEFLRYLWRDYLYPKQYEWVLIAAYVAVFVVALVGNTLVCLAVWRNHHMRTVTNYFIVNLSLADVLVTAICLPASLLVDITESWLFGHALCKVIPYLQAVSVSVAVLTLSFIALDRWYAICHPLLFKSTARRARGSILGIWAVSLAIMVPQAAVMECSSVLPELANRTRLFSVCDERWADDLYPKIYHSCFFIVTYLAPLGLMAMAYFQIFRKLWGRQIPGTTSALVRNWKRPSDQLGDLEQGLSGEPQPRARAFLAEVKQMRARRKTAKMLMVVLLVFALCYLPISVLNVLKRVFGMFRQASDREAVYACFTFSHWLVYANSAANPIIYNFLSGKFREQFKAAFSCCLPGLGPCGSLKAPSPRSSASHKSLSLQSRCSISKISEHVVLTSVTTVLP
Active calls of the source: *; & = joins results of further samples. An excerpt; most or all hits stand in other tables.

OX1R antag	compound
-19.4	c1ccc(C2[C@H]3CN(CC4CCCCC4)[C@H](c4ccccc4)C34CC2(c2ccccc2)C4)cc1 (some centres undefined)
-7.8	Cc1cc(Cn2nnc3ccccc32)c(O)c(C(C)(C)C)c1
-33.7	CCC(=O)NC(c1cccc([N+](=O)[O-])c1)c1c(OC(C)=O)ccc2ccccc12 (centres undefined)
-8.2	COc1ccc2c(c1)C(=O)N1[C@H]3c4cc(Br)ccc4OC[C@@H]3[C@H](c3ccccc3)[C@]1(C)C(=O)N2
-8.4	CC1CCN(C(=S)c2ccc(N(C)C)cc2)CC1
10.1	O=C(CSc1nnnn1-c1ccc(Cl)c(C(=O)O)c1)NC(c1ccccc1)c1ccccc1
-11.6	Clc1ccc(OCc2nc(-c3ccncc3)no2)c(Cl)c1
7.9	CCCCCC(=O)Nc1cccc(C2=NOC3(C2)C[C@H](C(N)=O)N(C(=O)c2ccccc2)C3)c1 (some centres undefined)
-28.7	Fc1ccc(Oc2nccc(-c3ccc(Cl)cc3)n2)cc1
-25.6	CCOC(=O)c1sc2nc(C)nc(Nc3ccccc3)c2c1C
-10.6	CCCCOC(=O)c1ccc(NC(=O)c2c(Cl)ccc(Cl)c2OC)cc1
-13.4	CC(=O)Nc1ccc(SCC(=O)Nc2cc(C(C)(C)C)nn2-c2ccccc2)cc1
-10.5	COCC(C)Nc1ncnc2c1cnn2-c1ccc(Cl)cc1 (centres undefined)
-34.0	COc1ccc(OC)c(NC(=O)C(C)Oc2ccc(Br)cc2)c1 (centres undefined)
-9.3	CN1[C@@H]2CCC[C@H]1CC(NC(=O)c1nn(C)c3ccccc13)C2 (some centres undefined)
-16.4	CC(C)=CCC/C(C)=C/CC/C(C)=C/CC/C(C)=C/CC1=C(C)C(=O)c2ccccc2C1=O
-7.2	Cc1ccc(S(=O)(=O)CCSc2cccc(C(=O)O)c2)cc1
-7.2	O=C(c1ccc(C(F)(F)F)cc1)c1c[nH]c(C(=O)NCCCn2ccnc2)c1
-3.7	CCOc1ccc(N2CC(C(=O)Nc3ccc(F)cc3F)CC2=O)cc1 (centres undefined)
-7.2	O=C(Nc1ccc(O)c(C(=O)O)c1)c1cccc(NC(=O)c2ccco2)c1

Five compounds already listed, ordered by their value in OX1R antag, high to low:
OX1R antag	compound
7.9	CCCCCC(=O)Nc1cccc(C2=NOC3(C2)C[C@H](C(N)=O)N(C(=O)c2ccccc2)C3)c1 (some centres undefined)
-7.8	Cc1cc(Cn2nnc3ccccc32)c(O)c(C(C)(C)C)c1
-10.5	COCC(C)Nc1ncnc2c1cnn2-c1ccc(Cl)cc1 (centres undefined)
-19.4	c1ccc(C2[C@H]3CN(CC4CCCCC4)[C@H](c4ccccc4)C34CC2(c2ccccc2)C4)cc1 (some centres undefined)
-25.6	CCOC(=O)c1sc2nc(C)nc(Nc3ccccc3)c2c1C

Further compounds:
OX1R antag	compound
-10.1	Cc1ccc(S(=O)(=O)CC(=O)NC2CC2)cc1
0.3	O=C(O)/C=C\C(=O)Nc1ccc(OCc2ccccc2)cc1
12.4	COc1ccccc1NS(=O)(=O)c1cccc(C(=O)OCC(=O)NC2CC2)c1
2.7	CS(=O)(=O)N1CCN(CC2CC3C=CC2C3)CC1 (centres undefined)
-5.6	S=C(NCCc1ccccn1)NC1CCCCC1
-16.4	COc1ccc(C2CCCN2C(=S)Nc2cccc(C)c2)cc1OC (centres undefined)
1.5&-1.9	N#C/C(=N\O)c1nc(-c2ccccc2)cs1
-17.6	Cc1ccccc1-c1ccc(=O)n(CC(=O)Nc2ccc(-n3cnnn3)cc2)n1
-18.2	Cc1ccc(CN2CCN(c3ccccc3Cl)CC2)o1
-1.2	COc1ccc(Cn2nnnc2CN2CCN(c3ccc(OC)cc3)CC2)cc1
-5.1	O=C(N/N=C/c1cc2c(cc1Cl)OCO2)c1ccncc1
-7.5	COc1ccc(/C=N/NC(=O)CC2N=C(Cc3ccccc3)NNC2=O)cc1OC (centres undefined)
-25.6	Cc1ccc(C)c(C(=O)Cn2ncc(Cl)c(Cl)c2=O)c1
-19.8	CCn1c(CCNC(=O)c2cccs2)n[nH]c1=S
-39.3	Cc1ccc(C)c(N2CCN(C(=O)c3cc4sccc4n3C)CC2)c1
-9.0	OCC[C@@H]1C[C@H](O)[C@@H](O)[C@@]2(OCc3ccccc32)O1
-21.0	CCc1ccccc1NC(=O)CSc1nnc(-c2ccco2)n1N
-9.5	CCOC(=O)C1CCN(C(=O)CN2C(=O)c3ccccc3S2(=O)=O)CC1
-7.4	CN(CC(=O)Nc1ccc(N2CCOCC2)cc1)C(=O)CCNC(=O)c1ccccc1Cl
-12.8	O=C(NCCS(=O)(=O)N1CCN(c2ccccc2F)CC1)c1c(F)cccc1F
0.3	COC(/C=C/Nc1ccc(C)c(C)c1)=C(C#N)C#N
0.2	CN1CCN(CCC2Oc3cc([N+](=O)[O-])ccc3NC2=O)CC1 (centres undefined)
-9.9	O=C1CC(N2CCCc3ccccc32)C(=O)N1c1ccccc1 (centres undefined)
-8.6	CCn1c(SCc2nc(N)nc(N3CCCCC3)n2)nc2c1c(=O)n(C)c(=O)n2C
-12.1	O=C(N/N=C\c1cc2c(cc1Cl)OCO2)c1cccnc1
-12.5	COc1cccc(C2C3=C(CCCC3=O)NC3=C2C(=O)c2ccccc23)c1 (centres undefined)
-8.2	CC(O)CNc1nc2c(c(=O)n(Cc3ccccc3)c(=O)n2C)n1C (centres undefined)
-10.6	COCCCNC(=O)c1cc(C)nn1-c1ccccc1
-30.4	O=C(CSc1nnc(-c2ccccc2)n1-c1ccc(Cl)cc1)N/N=C/c1ccco1
-32.3	Clc1ccc(Cn2nc(-c3ccccc3)nc2-c2ccccc2)cc1
-15.5	Cc1ccc(OCCn2c(=O)oc3ccc(C)cc32)cc1
-7.7	COC(=O)c1c(NC(=O)c2ccc(S(=O)(=O)N3CCOCC3)cc2)sc2c1CCN(C)C2
-5.5	O=C(O)c1ccc2c(c1)OCCCO2
-32.1	Clc1ccc(CSc2snnc2-c2ccccc2)cc1
-42.2	CC(C)CCNC(=O)C(c1ccco1)N(C(=O)Cn1nnc2ccccc21)c1ccc2c(c1)OCO2 (centres undefined)
-3.1	FC(F)(F)C1CC(c2cccs2)Nc2ncnn21 (centres undefined)
-12.3	CCOC(=O)C1=C(N)n2c(s/c(=C\c3ccco3)c2=O)=C(C(=O)OCC)C1c1ccco1 (centres undefined)
-7.2	CC(=O)NNc1nc(-c2ccc(C)cc2)cs1
-2.1	Cc1cccc(C)c1NC(=O)CNC(=O)Cn1nc(C)c(C)c(C#N)c1=O
-6.5	CC1CCCC(NC(=O)CN2C(=O)COc3ccccc32)C1C (centres undefined)
-24.9	Cc1cc(C(=O)N2CCCC(N3CCN(c4cccc(Cl)c4)CC3)C2)no1 (centres undefined)
-4.9	COc1ccc(C(=O)CSc2nnc(-c3cc(C)on3)o2)cc1
-22.3	COc1cc(/C=N/NC(=O)COc2ccc(Cl)cc2)ccc1OS(=O)(=O)c1ccc(C)cc1
-3.2	O=C(Nc1ccc2c(c1)OCO2)N1CCN(c2ccccc2)CC1
-18.6	CCN(C(=O)c1cc2c(=O)[nH]c3ccc(C)cc3c2s1)c1ccc(F)cc1
-12.0	c1ccc(-c2nc(-c3ccco3)n3ccccc23)cc1
-14.2	COc1cccc(OCc2cc(C(=O)N(C)C3CCOCC3)no2)c1
-11.1	S=c1[nH]nc(Cc2ccccc2)n1-c1cccc2ccccc12
-6.5	O=C1C2C3C=CC(CC3)C2C(=O)N1c1ccccc1[N+](=O)[O-] (centres undefined)
-31.9	Cc1ccccc1C(=O)OCC(=O)N(C)c1c(N)n(Cc2ccccc2)c(=O)[nH]c1=O
-28.3	Cc1ccc(N2CC(C(=O)NC3=NCCS3)CC2=O)cc1C (centres undefined)
-5.2	CCOC(=O)[C@@H]1[C@H]2COc3cc(OC)ccc3[C@H]2N2C(=O)N(c3ccc(Cl)cc3)C(=O)[C@]12C
-12.7	COc1ccc(N2CC(NC(=O)N3CCc4ccccc43)CC2=O)cc1OC (centres undefined)
-3.8	COc1ccc(C(=O)OCCN2CCOCC2)cc1
-2.1	CCOc1ccc(/C=N/Nc2nc(=O)[nH]nc2C)cc1OC
-13.1	O=C(CN(c1ccccn1)S(=O)(=O)c1ccc(F)cc1)Nc1ccc(F)cc1F
-22.4	CCC(C)Sc1nnc(CSc2nc(C)cc(C)n2)n1C (centres undefined)
-13.8	Cc1ncc([N+](=O)[O-])n1CCO
-16.5	Cc1cc(C(=O)N2CCc3c([nH]c4ccccc34)C2c2cccc(Cl)c2)nn1C (centres undefined)
-20.4	CCNC(=O)NC(=O)C(C)OC(=O)c1oc2ccccc2c1CSC1CCCCC1 (centres undefined)

At a glance, 4 of the compounds above.
OX1R antag	compound
-7.2	O=C(Nc1ccc(O)c(C(=O)O)c1)c1cccc(NC(=O)c2ccco2)c1
-10.1	Cc1ccc(S(=O)(=O)CC(=O)NC2CC2)cc1
0.3	O=C(O)/C=C\C(=O)Nc1ccc(OCc2ccccc2)cc1
12.4	COc1ccccc1NS(=O)(=O)c1cccc(C(=O)OCC(=O)NC2CC2)c1

(more compounds)
OX1R antag	compound
-23.0	COc1ccc(NC(=O)c2ccc(-n3cccn3)c([N+](=O)[O-])c2)cc1
-10.0	CS(=O)(=O)N1N=C(c2ccco2)CC1c1ccc(Br)cc1 (centres undefined)
-14.9	CCCC1(C(=O)OCC)NC(c2ccc(N(C)C)cc2)C2C(=O)N(c3ccccc3)C(=O)C21 (centres undefined)
-7.9	Cn1c(CCNC(=O)c2ccco2)nc2cc(NC(=O)NC3CCCCC3)ccc21
-37.5	COc1cccc(CN(C)CC(=O)NCc2ccccc2Cl)c1OC
-16.0	COc1ccc(C(=O)NCC(=O)N/N=C/c2cccnc2)cc1
-5.0	Cc1oc(C(C)(C)C)cc1C(=O)Nc1ccc2c(c1)OCO2
-22.3	CC(=O)NCCN1C(=O)C2C3c4ccccc4C(c4ccccc43)C2C1=O (centres undefined)
-7.6	NC(=O)Cn1cc(C(=O)COc2ccccc2)c2ccccc21
-22.5	NC(=O)c1nn(-c2ccccc2)nc1NC(=O)CSc1nnnn1-c1ccc(Cl)cc1
-14.4	Cc1csc(NC(=O)c2cc3c(s2)CCCCC3)n1
-0.4	Cc1ccc(CNC(=O)C2CC(c3ccccc3F)=NO2)cc1 (centres undefined)
-25.6	CC(=O)NC1=NN(C(C)=O)C2(S1)C(=O)N(C(C)=O)c1ccc(C)cc12 (centres undefined)
-16.3	COc1ccc(NC(=O)CCS(=O)(=O)c2ccc3nc(C)sc3c2)cc1OC
-7.4	Cc1ccc(S(C)(=O)=O)cc1S(=O)(=O)Nc1ccccc1
-28.0	CC/C(=N/Nc1ccccc1Cl)c1cnnc(-c2ccccc2)n1
-7.5	NC(=O)C[n+]1cccc(C(N)=O)c1
-18.1	CN1CCc2cc(Cl)c(O)cc2[C@@H](c2ccccc2)C1
-7.0	COc1ccc2c(C(=O)CN3CC(C)OC(C)C3)c[nH]c2c1 (centres undefined)
-21.0	COCC(CN1CCN(C2=NS(=O)(=O)c3ccccc32)CC1)OC(=O)c1ccccc1 (centres undefined)
-13.4	CC(=O)NC(Cc1ccc(F)cc1)C(=O)NC1CCN(c2ncccc2[N+](=O)[O-])CC1 (centres undefined)
-48.0	COc1ccc(CCNC(=S)NC(=O)c2ccccc2)cc1C
1.0	Cc1ccc(/C=N/NC(=O)c2nnn(-c3nonc3N)c2CNc2ccccc2)cc1
-14.7	COc1ccccc1Nc1ccc([N+](=O)[O-])cn1
-12.2	O=C(c1ccc(F)cc1)C(C(=O)N1CCCCC1)n1ccccc1=O (centres undefined)
-20.8	COc1ccc(/C=C2/SC(=S)N(n3c(C)ccc3C)C2=O)cc1
-25.9	OCCC1CN(Cc2cccc(-c3ccco3)c2)CCN1Cc1ccsc1 (centres undefined)
-35.3	COCC(=O)Nc1c(C(=O)Nc2ccc3c(c2)OCCO3)oc2ccccc12
-3.8	NC(=O)c1c(NC(=O)C(=O)NCCCN2CCOCC2)sc2c1CCCC2
-2.6	O=c1[nH]cc(COCc2ccccc2)c(=O)[nH]1
-29.0	CC1Sc2ccc(S(=O)(=O)CCC(=O)NC3CCCCCC3)cc2NC1=O (centres undefined)
-0.4	Cc1c(NC(=O)c2ccccc2NC(=O)COc2ccccc2)cccc1C(=O)O
-6.5	CCOC(=O)CCSc1nnc(-c2cccnc2)n1-c1ccccc1OC
3.6	CCc1nnc(NC(=O)CSC(=S)N2CCOCC2)s1
-16.4	Cc1ccc(S(=O)(=O)N/N=C(\c2ccccc2)c2cccnc2)cc1
-2.0	CC1(C)CN(c2ccc(C(=O)c3ccccc3)cc2)C1=O
-1.9	CC(C(=O)N(C)C1CCCCC1)N1CCC(C(N)=O)CC1 (centres undefined)
-28.3	COc1ccc(-c2cc(C(=O)N3CCN(C(c4ccccc4)c4ccccc4)CC3)no2)cc1OC
-25.8	CN1CCCN(C(=O)Cc2c(Cl)cccc2Cl)c2nc3ccccc3nc21
-8.7	CCOC(=O)CNC(=O)C1CCCc2c1[nH]c1ccc(Cl)cc21 (centres undefined)

A second format for 4 compounds above:
COc1ccc(CCNC(=S)NC(=O)c2ccccc2)cc1C
  OX1R antag = -48.0

Cc1ccc(/C=N/NC(=O)c2nnn(-c3nonc3N)c2CNc2ccccc2)cc1
  OX1R antag = 1.0

COc1ccccc1Nc1ccc([N+](=O)[O-])cn1
  OX1R antag = -14.7

O=C(c1ccc(F)cc1)C(C(=O)N1CCCCC1)n1ccccc1=O (centres undefined)
  OX1R antag = -12.2

(cont.)
OX1R antag	compound
-19.2	Cc1cc(C)n(CCc2nc(-c3ccc(C(C)(C)C)cc3)cs2)n1
-10.7	CCOC(=O)c1c(C)nn(-c2ccc(NC(=O)CSCC(=O)O)cc2)c1C
-8.1	CC(=O)c1ccc(N2CCCCC2)c(F)c1
-0.7	O=C(COc1ccc(-n2cnnn2)cc1)Nc1ccccc1Cl
-3.3	CCN1CCc2nc(N)sc2C1
-14.0	C=CCn1c(CSCc2ccc(F)cc2)n[nH]c1=S
8.7	CC(C)(C)NS(=O)(=O)c1ccc2[nH]c3c(c2c1)CCCCC3
-12.3	O=C(COC(=O)c1ccc(Cl)nc1)Nc1nnc(-c2ccccc2)o1

Bioassay records: PubChem BioAssay, The Scripps Research Institute Molecular Screening Center
